# High-throughput results: PubChem BioAssay, Southern Research Institute
# Mtb H37Rv: Mycobacterium tuberculosis H37Rv growth inhibition, cell based, confirmatory dose response (AID 1949); one-dose inhibition, % at 10 µg/mL; IC50 in µg/mL for titrated hits; most inactive calls were filed without a number and no value below 0 was filed; 100,000 compounds, 1.6% hits;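 active = confirmed in a dose series; inconclusive = about 50% or more but not retested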;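 note: bacteria grown 7 days with compound before Alamar blue readout; 0% = untreated bacteria and 100% = reference antibiotic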
# The depositor's hits bear a star; i = inactive; ? = inconclusive. An excerpt, so the mix of outcomes need not match the whole.
Molecule	Mtb H37Rv
COc1ccc(/C=C/c2nc3ccccc3s2)cc1OC	i
N/C(=N/O)c1cc[n+](Cc2ccccc2)cc1	i
O=C(Nc1ccc2oc(=O)ccc2c1)c1cc(Br)ccc1Cl	i
COCCNC(=S)N1CCCC(CO)C1 (stereo not given)	i
Cc1ccc(-c2csc(Nc3ncccc3C)n2)cc1	i
Cc1ccc(C)n1-c1ccc(C(=O)NCc2ccccc2)cc1	2%
CCc1c(C(=O)NNC(=S)NCCc2ccccc2)csc1C	2%
CSc1ccccc1NC(=O)c1c(-c2ccccc2)noc1C	i
CCOC(=O)c1c(NC(=O)c2cc(OC)c(OC)c(OC)c2)sc2c1CCC(CC)C2 (stereo not given)	i
COc1ccccc1C(=O)NCCOc1ccc(C)c(C)c1	i
COc1ccc(S(=O)(=O)N(CC(=O)Nc2ccc3c(c2)OCO3)Cc2ccccc2)cc1	3%
CCN1C(=O)c2ccc(Oc3ccc4c(c3)C(=O)N(CC)C4=O)cc2C1=O	i
Cc1ccc(C(=O)NCCNS(=O)(=O)c2ccccc2)cc1	i
O=C(Nc1ccc([N+](=O)[O-])cc1)C1CCN(S(=O)(=O)c2ccccc2)CC1	2%
O=C(c1ccco1)N1CCN(c2ncnc3scc(-c4cccs4)c23)CC1	i
C=CCn1c(SCC(=O)NCC2CCCO2)nc2sc3c(c2c1=O)CCC(C)C3 (stereo not given)	i
COc1ccc(NC(=O)c2ccccc2N(C)S(C)(=O)=O)cc1Cl	i
COC(C(=O)Nc1cccc(C(C)=O)c1)c1ccccc1 (stereo not given)	i
Cc1ccccc1-c1nc(C#N)c(NC2CCCCC2)o1	i
CCOc1ccccc1C(=O)NCCNC(=O)c1ccccc1OCC	i
CCC(Oc1ccccc1)C(=O)NCCOC (stereo not given)	i
Cc1nc(CC(=O)O)c(-c2ccccc2)s1	i
CC(=O)N1CCc2cc(NC(=O)c3ccc(C)cc3)ccc21	i
CCC(Oc1ccccc1)C(=O)N(Cc1ccccc1)c1ccccn1 (stereo not given)	i
Cc1cccc(NCc2ccc(Cl)cc2)n1	9%
COC(=O)CN1C(C)=Nc2ccc(Cl)cc2C1c1ccccc1 (stereo not given)	i
CS(=O)(=O)N(CC(=O)Nc1ccccc1C(=O)NCCc1ccccc1)c1cccc2ccccc12	i
CCN1CCN(C(=O)CN(c2cc(Cl)ccc2OC)S(C)(=O)=O)CC1	i
Cc1cc(=O)oc2cc(OC(=O)CNC(=O)c3ccccc3)c(Cl)cc12	i
O=C(Nc1ccccc1C(=O)O)c1ccc(Cl)c(NC(=O)c2ccccc2Cl)c1	i

Molecule	Mtb H37Rv
COc1ccc(NC(=O)c2sc3c(Cl)c(OC)ccc3c2Cl)c(OC)c1	1%
S=C(Nc1ccc(Oc2ccccc2)cc1)NC1CCCCC1	i
COc1ccc(C(=O)CCNc2cccc(C(F)(F)F)c2)cc1	12%
Cc1ccccc1CSCC(=O)Nc1ccccc1-c1ccccc1	i
O=C(OCc1nnc(-c2ccccc2)o1)c1ccc(Br)o1	32%
CC(=O)c1cccc(NC(=O)NCc2ccco2)c1	1%
COc1ccccc1OCc1nc(-c2ccccn2)no1	i
CC(=O)Nc1ccc(-c2ccc(NC(C)=O)cc2)cc1	i
COC(=O)C1=CN(C(C)C)C=C(C(=O)OC)C1c1cccc(Oc2ccccc2)c1	9%
N#Cc1ccc(-c2ccccc2)nc1SCCN1CCCCC1	i
COCc1cc(=O)[nH]c(/N=C(\N)Nc2ccc(Oc3ccccc3)cc2)n1	i
COc1ccc(C(=O)NCc2nnc(SCC(=O)Nc3ccc(Br)cc3C(C)C)n2C)cc1OC	1%
C=CCc1cc(C)ccc1OCCCN1CCOCC1	i
O=C(NCCO)C1CCN(S(=O)(=O)c2ccc(Cl)cc2)CC1	i
O=C(O)c1cn(-c2ccc(F)c(F)c2)c2c(F)c(F)c(F)c(F)c2c1=O	2%
Cc1nnc(SCc2ccc(C#N)cc2)s1	i
Cc1onc(-c2c(F)cccc2Cl)c1C(=O)Nc1nnc(C2CCCCC2)s1	i
Cc1cc([N+](=O)[O-])ccc1NC(=O)COc1ccc(C(C)(C)c2ccccc2)cc1	9%
Cc1cc(C)cc(OCc2nc(-c3ccccn3)no2)c1	3%
O=S(=O)(Nc1ccccc1)c1ccc(NS(=O)(=O)c2ccc(Cl)s2)cc1	i
COc1cc(CO)cc(Br)c1OCc1ccc(Cl)c(Cl)c1	4%
Cc1cc2c(cc1C)NC(CC(=O)Nc1ccc(Cl)c(C(F)(F)F)c1)C(=O)N2 (stereo not given)	i
Cc1ccc(CNC(=O)C(C)(C)C)cc1	i
CCOC(=O)C1=C(Cn2ccc(C(F)(F)F)n2)NC(=O)NC1c1cc(C)ccc1C (stereo not given)	0%
CC1=C(C(=O)Nc2ccc(C)c(C)c2)C(c2ccc(N(C)C)cc2)NC(=S)N1 (stereo not given)	i
Cc1csc(NC(=O)CSc2nc(C34CC5CC(CC(C5)C3)C4)ccc2C#N)n1	i
CCOc1ccc(N(CC(=O)N2CCN(CC)CC2)S(=O)(=O)c2ccc(Br)cc2)cc1	i
C=CCNC(=S)N(C1CCCCC1)C1CCCCC1	0%
CC(=O)Nc1nnc(SCC(=O)Nc2ccc(C(C)C)cc2)s1	i
Cc1nnc(N2C(=O)c3oc4ccccc4c(=O)c3C2c2ccc(F)cc2)s1 (stereo not given)	i

smiles	Mtb H37Rv
O=C(Nc1ccc(NC(=O)C2COc3ccccc3O2)cc1)c1ccccc1F (stereo not given)	i
O=Cc1cn(CCOc2ccc3c(c2)OCO3)c2ccccc12	6%
O=[N+]([O-])c1cccc(CN2CCC(N(CCc3ccccc3)Cc3ccccc3)CC2)c1	6%
S=C(NCCN1CCOCC1)Nc1ccc(Oc2ccccc2)cc1	i
CC(=O)Nc1cccc(C(C(F)(F)F)C(F)(F)F)c1	0%
COC(=O)c1sc(NC(=O)C2(C)CC2(Cl)Cl)c(C#N)c1C (stereo not given)	i
O=S(=O)(Nc1ncn[nH]1)c1ccc2ccccc2c1	i
CCOc1ccccc1Nc1nc(-c2cc3cc(Br)ccc3oc2=O)cs1	i
Nc1nc(NC(=O)CCC(=O)O)nn1-c1ccccc1	i
Cc1ccc(-c2nn(C)c(=O)c3ccccc23)cc1S(=O)(=O)NCCN(C)C	i
CCOc1ccc(NC(=O)CN(c2ccc(CC)cc2)S(C)(=O)=O)cc1	3%
CCCOc1ccc(C2C(C(=O)N3CCOCC3)=C(C)NC3=C2C(=O)CCC3)cc1OC (stereo not given)	i
O=C(CN1C(=O)c2ccccc2S1(=O)=O)Nc1ccc(S(=O)(=O)N2CCCC2)cc1	i
Cc1ccccc1C(=O)Nc1cc(C(F)(F)F)ccc1N1CCOCC1	2%
O=C(O)CNC(=O)C1COc2ccccc2O1 (stereo not given)	i
O=C(Oc1ccccc1)c1cccc2cccnc12	0.99µg/mL*
CN1C2=C(C(=O)CCC2)C(c2cc(Br)ccc2OCc2ccc(Cl)cc2)C2=C1CCCC2=O	i
COc1ccc(N(Cc2cc3cc(C)ccc3[nH]c2=O)C(=O)c2ccc([N+](=O)[O-])cc2)cc1	i
CCOc1cc(CN2CCN(C(=O)c3cccc4ccccc34)CC2)ccc1OC	i
COC(=O)Nc1sc2c(c1C(=O)NC1CC1)CCCCCC2	i

smiles	Mtb H37Rv
Brc1cccc(-c2noc(-c3ccco3)n2)c1	0%
COc1ccc(Cl)cc1C(=O)Nc1ccc(Br)c(C)n1	i
Cc1nc(NC(=O)C23CCC(C)(C(=O)C2)C3(C)C)sc1C (stereo not given)	i
CC(=O)Nc1ccc(C(=O)Nc2cccc(F)c2)cc1	1%
O=C(CSc1nnnn1-c1cccc2ccccc12)Nc1ccc(N2CCOCC2)c(Cl)c1	1%
CC(NC(=O)c1cc(-c2ccccn2)nc2ccc(Br)cc12)C1CCCO1 (stereo not given)	3%
CC(=O)c1ccc(COC(=O)CCc2nc3ccccc3[nH]c2=O)cc1	i
COC(=O)c1ccccc1NC(=S)Nc1cc(Cl)ccc1OC	i
Cc1ccc(C)n1-n1cnc2sc3c(c2c1=O)CCC(C)C3 (stereo not given)	4%
C=CCn1c(N)cc(=O)nc1SC(C)C(=O)Nc1ccc(C)cc1 (stereo not given)	i
O=C(COc1ccccc1)Nc1cc(C(F)(F)F)ccc1N1CCCC1	6%
O=C(CCNc1n[nH]c(=O)[nH]c1=O)N/N=C/c1ccc2c(c1)OCO2	i
CCCCS(=O)CC(O)COc1ccc(C(C)(C)C)cc1 (stereo not given)	4%
COc1ccc(CN2CCC(C(=O)N3CCN(c4ccccc4F)CC3)CC2)cc1	i
O=C(NC(=S)Nc1ccccc1N1CCOCC1)c1ccc(-c2cccc(Cl)c2)o1	i
CCOc1cccc(NC(=O)Nc2cccc(F)c2)c1	i
N#Cc1ccccc1S(=O)(=O)Nc1ccc(Cl)c(C(F)(F)F)c1	i
N#C/C(=C/c1ccc(Br)cc1)c1ccc(C#N)cc1	i
CN(C)CCCNS(=O)(=O)c1ccc2ccccc2c1	i
O=[N+]([O-])c1ccc(-n2nnnc2SCc2cccc(Cl)c2)cc1	i

# Filtered by structure, the compounds so far with a tert-butyl group
smiles	Mtb H37Rv
Cc1ccc(CNC(=O)C(C)(C)C)cc1	i
CCCCS(=O)CC(O)COc1ccc(C(C)(C)C)cc1 (stereo not given)	4%

# The list goes on:
smiles	Mtb H37Rv
CSc1nc(-c2ccccc2)c(C#N)c(=O)n1C	1%
CC(C)CNS(=O)(=O)c1ccc2ccccc2c1	i
COc1ccc(/C=C(/C#N)c2ccc(C#N)cc2)cc1Br	i
CCCS(=O)(=O)c1ccc(COC(=O)c2ccccc2SCc2ccccc2)cc1	i
COc1cc(C(=O)NNC(=O)c2cccc(Br)c2)cc(OC)c1OC	0%
COc1ccc(-c2nn3c(-c4ccncc4)nnc3c3ccccc23)cc1	i
OCCN(CCO)CC(O)COc1ccc2c(c1)OCO2 (stereo not given)	i
N#Cc1c(NC(=O)C2CC(=O)N(C3CCCCC3)C2)sc2c1CCCC2 (stereo not given)	29%
COc1ccc(Cl)cc1NC(=O)CC1NCCNC1=O (stereo not given)	2%
O=C(Nc1c(C(=O)Nc2ccc(Cl)cc2)cnn1-c1ccccc1)c1ccccc1F	i
CC(C)(C)c1ccc(-c2nc(-c3cccnc3)no2)cc1	i
O=C(CSc1ccc(Cl)cc1)c1cc2ccccc2oc1=O	7%
CC(Oc1cccc(Cl)c1)C(=O)Nc1ccccc1-c1ccccc1 (stereo not given)	47%
C=CCNCc1ccccc1NS(=O)(=O)c1ccc(C)cc1	i
C=CCNC(=O)c1ccccc1NC(=O)CN(c1cccc(Cl)c1)S(=O)(=O)c1ccccc1	i
COC(=O)c1c(NC(=O)c2cc(Cl)ccc2OC)sc2c1CCC2	i
Cc1ccc(NC(=O)COc2ccc(Br)cc2C)cc1	i
CCCCC(=O)NC1=NC(=O)C(C)(C)S1	7%
O=C(COc1ccc(S(=O)(=O)N2CCOCC2)cc1)N1CCC(Cc2ccccc2)CC1	0%
COc1cc(NC(=S)NC(=O)Cc2cccc3ccccc23)cc(OC)c1	i

smiles	Mtb H37Rv
Cc1nn(C(=O)COc2ccccc2Br)c(C)c1Sc1ccc([N+](=O)[O-])cc1	9%
CCN1CCN(C(=O)c2ccc(C)o2)CC1	i
O=C(CN(c1ccccc1)S(=O)(=O)c1ccc(Cl)cc1)Nc1ccccc1C(F)(F)F	i
COC(=O)C(=O)CC(=O)c1c(C)nn(-c2ccccc2)c1C	i
COc1ccccc1NC(=O)c1ccc(COc2cccc(C)c2)cc1	i
CCOCCc1nnc(NC(=O)CC(c2ccccc2)c2ccccc2)s1	i
CCOc1ccc(NC(=S)NC(=NCc2ccc([N+](=O)[O-])cc2)c2ccc(C)cc2)cc1	7%
O=C1CC(C(=O)Nc2cc(Cl)ccc2Cl)C2(CCCCC2)O1 (stereo not given)	i
Cc1nc(SCC(=O)N2CCc3ccccc32)c2c3c(sc2n1)CCCC3	i
CC(=O)C1=C(C)NC(SCC(=O)C23CC4CC(CC(C4)C2)C3)=C(C#N)C1c1ccccc1[N+](=O)[O-] (stereo not given)	29%
CC1=CC(C)(C)N(C(=O)CSc2ncn[nH]2)c2ccc(C)cc21	i
NC(=O)c1ccccc1NC(=O)c1cc(I)ccc1Cl	i
O=C(Nc1cccc2ccccc12)c1ccc(CSCc2ccccc2)cc1	?
Cc1ccc(S(=O)(=O)NCCc2ccccc2)c2nsnc12	i
O=C1CCCCCCCCCCCC(=O)OCCO1	7%
Cc1c(Cl)cccc1NC(=O)NNC(=O)CC(C)O (stereo not given)	i
CCNC(=O)COc1cc(Cl)c(Cl)cc1Cl	i
Cc1ccc([N+](=O)[O-])cc1S(=O)(=O)N1CCN(c2ccc(Cl)cc2)CC1	3%

# Entries listed so far with an aryl thioether with sulfur outside any ring (16):
smiles	Mtb H37Rv
CSc1ccccc1NC(=O)c1c(-c2ccccc2)noc1C	i
C=CCn1c(SCC(=O)NCC2CCCO2)nc2sc3c(c2c1=O)CCC(C)C3 (stereo not given)	i
N#Cc1ccc(-c2ccccc2)nc1SCCN1CCCCC1	i
COc1ccc(C(=O)NCc2nnc(SCC(=O)Nc3ccc(Br)cc3C(C)C)n2C)cc1OC	1%
Cc1nnc(SCc2ccc(C#N)cc2)s1	i
Cc1csc(NC(=O)CSc2nc(C34CC5CC(CC(C5)C3)C4)ccc2C#N)n1	i
CC(=O)Nc1nnc(SCC(=O)Nc2ccc(C(C)C)cc2)s1	i
O=C(CSc1nnnn1-c1cccc2ccccc12)Nc1ccc(N2CCOCC2)c(Cl)c1	1%
C=CCn1c(N)cc(=O)nc1SC(C)C(=O)Nc1ccc(C)cc1 (stereo not given)	i
O=[N+]([O-])c1ccc(-n2nnnc2SCc2cccc(Cl)c2)cc1	i
CSc1nc(-c2ccccc2)c(C#N)c(=O)n1C	1%
CCCS(=O)(=O)c1ccc(COC(=O)c2ccccc2SCc2ccccc2)cc1	i
O=C(CSc1ccc(Cl)cc1)c1cc2ccccc2oc1=O	7%
Cc1nn(C(=O)COc2ccccc2Br)c(C)c1Sc1ccc([N+](=O)[O-])cc1	9%
Cc1nc(SCC(=O)N2CCc3ccccc32)c2c3c(sc2n1)CCCC3	i
CC1=CC(C)(C)N(C(=O)CSc2ncn[nH]2)c2ccc(C)cc21	i
